Screening results deposited in PubChem BioAssay by National Center for Advancing Translational Sciences (NCATS).
ClpP mod: qHTS Assay for Activators of ClpP; ATP-dependent Clp protease proteolytic subunit (Bacillus subtilis (strain 168)), P80244; purified B. subtilis ClpP, FRET peptide cleavage, 20 min; Potency, µM (titrated, usually from 57.5 µM), inactives show at the highest dose activity change, negative = active; hit rate 1.9% among 340,000; active = well fitted falling curve with a large enough effect; inconclusive = small, poorly fitted or top-dose-only effect; inactive = no such curve, though single readings can be large or run the other way; note: potency is the fitted concentration of half-maximal effect; the source files actives as falling curves though it sought activators and does not explain the sign; nearly all actives have a fitted effect of over 65% in size; many hits overshoot -100%
Target sequence (P80244 whole entry, looked up): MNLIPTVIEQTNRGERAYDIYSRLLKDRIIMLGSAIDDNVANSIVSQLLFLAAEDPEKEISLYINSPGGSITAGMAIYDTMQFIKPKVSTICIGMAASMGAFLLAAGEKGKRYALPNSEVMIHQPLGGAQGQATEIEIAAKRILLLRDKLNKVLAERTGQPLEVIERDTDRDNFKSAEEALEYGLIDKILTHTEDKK
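FRET quenching reversal measured ClpP activation: 10 microg/mL B. subtilis ClpP at pH 8 with the FRET-FV decapeptide, read at 430 nm after 320 nm excitation. The 20-min minus 0-min signal was scaled between DMSO/no-enzyme wells and ADEP (5.8 microM final).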
TRPML1 agonist: activates the human TRPML1 channel; Q9GZU1; hit rate 0.12% among 410,000; TRPML1-expressing cells, Ca2+ dye fluorescence, FDSS; host cell line not named in the record; reference of the full effect not given here; activation, % (concentration not given with the values); in the data active = activation above about 50%; inconclusive = about 30% to 50%; inactive = below about 30%; note: 0% is about no effect; the text of the record puts the active cut at 80%
Target sequence (Q9GZU1 whole entry, looked up): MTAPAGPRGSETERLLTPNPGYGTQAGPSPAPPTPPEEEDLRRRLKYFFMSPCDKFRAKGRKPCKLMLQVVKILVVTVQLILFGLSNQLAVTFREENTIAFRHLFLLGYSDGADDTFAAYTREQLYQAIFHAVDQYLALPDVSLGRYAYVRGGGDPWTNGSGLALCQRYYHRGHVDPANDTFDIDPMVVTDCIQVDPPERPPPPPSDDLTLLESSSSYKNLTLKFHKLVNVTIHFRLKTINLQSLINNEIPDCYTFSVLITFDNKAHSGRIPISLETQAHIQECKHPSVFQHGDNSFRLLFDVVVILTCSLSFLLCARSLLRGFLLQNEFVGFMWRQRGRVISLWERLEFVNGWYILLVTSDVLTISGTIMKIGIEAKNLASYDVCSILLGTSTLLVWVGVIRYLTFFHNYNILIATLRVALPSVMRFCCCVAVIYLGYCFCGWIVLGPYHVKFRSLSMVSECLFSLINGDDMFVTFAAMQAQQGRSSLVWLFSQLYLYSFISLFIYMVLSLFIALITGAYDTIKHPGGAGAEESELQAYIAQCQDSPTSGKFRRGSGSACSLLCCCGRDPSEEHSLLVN
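Kinetic FDSS Ca2+ read in Tet-induced TRPML1-DL cells (ABD Ca8 dye plus quencher, 45-90 min RT loading): baseline, then compound, then 110 s agonist window; EC80 agonist 54-4 at 4uM final added afterwards for a 110 s antagonist window.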
gsp antag: antagonizes gsp, the McCune-Albright syndrome mutation. hit rate 0.4% among 340,000. gsp-mutant cells, cAMP HTRF, 30 min; control for the full effect not named in the record. Potency, µM (doses to about 76.9 µM), without a hit: top-dose activity change, negative = inhibition, most hits filed as inhibitors. AID 624288; active = falling curve of any shape with a large fitted effect; inconclusive = falling curve, mostly with a smaller effect; inactive = flat or rising curve; cell line not stated here;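 note: intracellular cAMP measured with PDE inhibitor Ro 20-1724 present during compound exposure; potency is the fitted concentration of half-maximal effect; % is set by controls: 0 for no effect and ±100 for the full control effect; nearly all actives have a fitted effect of over 65% in size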
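HTRF cAMP read-out (cAMP-d2 plus anti-cAMP antibody-K in lysis buffer, 30 min RT). Before lysis, cells are exposed to compounds with […] for 30 min at 37C in DPBS containing Ca/Mg, BSA and Tween 20.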
TRPML1 blocker: blocks the human TRPML1 channel; Q9GZU1; TRPML1-inducible cells, Ca2+ dye fluorescence, FDSS; hits give low values; inhibition of EC80 agonist-evoked calcium signal; activity change, negative = inhibition, % (concentration not given with the values); hit rate 0.02% among 390,000; AID 624415; in the data active means activity change below about -50%; inconclusive means about -30% to -50%; inactive means above about -30%;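 note: stimulus is agonist 54-4 at its EC80 concentration; % is set by controls: 0 for no effect and ±100 for the full control effect; compound concentration not given in the record; the text of the record puts the active cut at -80%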
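Tet-induced TRPML1-DL cells loaded with Ca8 no-wash calcium dye were read kinetically on FDSS. Compound addition was followed by EC80 agonist 54-4 (4 uM final); inhibition was read over 110 s.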
Menin-MLL FL inh: menin-MLL binding inhibition, fluorescein peptide. FP activity change, % at 61.4 µM. 290,000 tested, under 10 active. AID 1766. Fluorescence polarization, fluorescein-MLL peptide displacement from menin; inconclusive = falling polarisation curve, or a change in total fluorescence; inactive = total fluorescence flat and polarisation flat or rising; no compound was filed as active; the % refers to the polarisation; negative = inhibition;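 note: % of control where 0% means no effect; inhibitors lower the polarisation; unlabelled MLL peptide was the positive control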
gsp ag: agonists of gsp mutant (McCune-Albright syndrome); gsp mutant cells, cAMP HTRF, 30 min; control for the full effect not named in the record; Potency, µM (highest dose often 76.9 µM), inactives show at the highest dose activation (cAMP increase), hits mostly activators; hit rate 0.13% among 340,000; active = well fitted activation curve with a large enough effect; inconclusive = small, poorly fitted or top-dose-only effect, or another doubt; inactive = no such curve, though single readings can be large or run the other way; cell line not stated here;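 note: phosphodiesterase inhibitor Ro 20-1724 added with compounds to block cAMP breakdown; potency is the fitted concentration of half-maximal effect; nearly all actives have a fitted effect of over 60% in size; about a fifth of the inactives were tested at one dose only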
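Cells in DMEM/10% FBS with G418 were pretreated with compounds in DMSO plus […] (300 uM stock) for 30 min at 37C. cAMP was measured by HTRF (cAMP-d2 plus anti-cAMP antibody-K) after 30 min at room temperature.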
Numbers without * were called inactive; u = inconclusive; x = no result given; & = joins results of further samples; [ ] = remark or other dose.

SMILES	Menin-MLL FL inh	gsp ag	gsp antag	TRPML1 agonist	ClpP mod	TRPML1 blocker
COc1ccccc1NC(=O)CCn1cnc2ccccc2c1=O	x	x	x	-0.5	-2.3%	16
COC(=O)c1sccc1NC(=O)c1cccc(F)c1	x	24%	-19%	8.9	x	18
CCn1c(SCC(=O)c2ccccc2)nnc1-c1ccoc1C	4.7	-2%	2%	-0.3	0.1%	4
O=[N+]([O-])c1ccc(N/N=C\c2cccnc2)nc1	-2.9	3%	8%	-0.2	0.1%	15
C#CCOCCOCCOCCNc1nc(N2CCOCC2)nc(N2CCN(C(=O)[C@H](Cc3cc4ccccc4[nH]3)n3cc([C@@H](N)CC(C)C)nn3)CC2)n1	3.8	-18%	7%	-0.6	-1.4%	-8
Cc1ccc(NC(=S)NNC(=O)c2ccccc2O)c(C)c1	2.1	-11%	-13%	-0.9	x	29
COc1ccccc1/C=N/NC(=S)NCc1ccco1	1.5	4%[15.4 µM]	-6%	2.2	x	-16
CSCCC(NC(=O)COc1ccccc1)C(=O)N1CCN(c2cccc(C(F)(F)F)c2)CC1 (configuration not stated)	x	6%[15.4 µM]	-29%	4.1	x	10
Cc1ccc(NC(=O)COC(=O)Cn2cnc3c2c(=O)n(C)c(=O)n3C)cc1Cl	1.4	0%	-13%	-0.5	0.9%	5
Cc1ccc(SCCN2CCN(CC(C)C)CCC2=O)cc1	0.5&-3.3	x	5%	1.3&-0.5	1.9%	12&0
C/C(=N\NC(=O)c1ccc(Cl)cc1)c1cccc(NC(=O)C(C)C)c1	0.5	0%	5%	-0.4	-0.2%	32
Cc1nc(NC(C)c2ccccc2)sc1C(=O)Nc1ccccc1 (configuration not stated)	1.8	-48%[inhibitor]	-16%	-0.1	-4.4%	-9
CCN(c1ccccc1)S(=O)(=O)c1cc(Br)cc2c1N(C(=O)C1CC1)CC2	x	x	x	2.8	-4.7%	-2
O=C1N(CN2CCC3(CC2)OCCO3)c2ccccc2C12OCCCO2	-0.7	5%	10%	-0.6	-1.2%	11
CCOC(=O)c1c(-c2ccc(F)cc2)csc1NC(=O)C1CCCO1 (configuration not stated)	0.5	-5%[15.4 µM]	u	0.0	x	14
O=C(CCNc1n[nH]c(=O)[nH]c1=O)N/N=C/c1ccccc1Br	2.6	8%[15.4 µM]	0%	0.6	x	16
CCOc1ccc(NS(=O)(=O)c2ccc(C(=O)NCC(c3ccco3)N3CCCC3)cc2)cc1 (configuration not stated)	x	-18%	8%	6.4	0.6%	-2
Cc1ccc(-c2ccc(C3C4C=CCCC4(C)C(=O)N3Cc3ccccc3)c(F)c2)cc1 (configuration not stated)	-1.4	x	x	1.2	x	78
COC(=O)[C@@]1(Cc2ccc(F)cc2)[C@H]2c3cc(C(=O)N(C)C)n(CCc4ccccn4)c3C[C@H]2CN1C(=O)c1ccccc1	-0.4&0.9	-9%	-3%	6.3	4.9%	-1
CCN(CC)S(=O)(=O)c1ccc(NC(=O)c2ccc(NS(C)(=O)=O)cc2)cc1	2.7	u	-9%	0.2	-14%	-5
CCc1ccc(NC(=O)CSc2nc3ccccc3c(=O)n2CCN2CCOCC2)cc1	-1.0	-28%	-10%	-0.1	1.2%	-3
COc1ccccc1OCCCOc1c(Cl)cc(C)cc1Cl	9.0	9%	-7%	-0.2	-1.2%	3
Cn1c2ccccc2c2cc(C(=O)N3CCN(CCO)CC3)sc21	-8.2	-8%	8%	0.0	-19%	-6
NC(=S)N/N=C/c1ccc2c(c1)OCCO2	0.4	7%[15.4 µM]	-11%	-0.6	-0.8%	8
CC(C(=O)N1CCC(C(N)=O)CC1)N(c1ccc(Oc2ccccc2)cc1)S(C)(=O)=O (configuration not stated)	2.4	13%	-11%	0.5	-0.9%	-4
CCCS(=O)(=O)N1CCC(Cc2ccc(OC)cc2)(C(=O)OCC)CC1	5.2	19%	-1%	5.4	-9.2%	-3
CCCNC(=O)C1CC(c2cccc(F)c2)=NO1 (configuration not stated)	3.8	21%	-8%	0.2	-2.1%	-21
COc1ccccc1C1C(C(=O)Nc2ccccc2)=C(C)Nc2nc(-c3ccccc3)nn21 (configuration not stated)	x	x	x	-0.7	-3.8%	-5
Cc1cc2oc(=O)cc(CN3CCCCC3)c2cc1Cl	x	x	x	-0.6	-2.9%	-1
O=C(CCCc1ccccc1)NC1CC(=O)N(c2cccc(F)c2)C1 (configuration not stated)	x	x	x	1.9	0.9%	3
CCS(=O)(=O)NCCc1csc(C)n1	3.4	15%	3%	0.2	-1.9%	5
O=C(CN1C(=O)c2cccc3cccc1c23)N1CCN(c2ccc(F)cc2)CC1	-1.5	-6%	9%	-0.7	-5.0%	-7

Grouped by structure: the entries above containing an aryl methoxy group (five)
SMILES	Menin-MLL FL inh	gsp ag	gsp antag	TRPML1 agonist	ClpP mod	TRPML1 blocker
COc1ccccc1NC(=O)CCn1cnc2ccccc2c1=O	x	x	x	-0.5	-2.3%	16
COc1ccccc1/C=N/NC(=S)NCc1ccco1	1.5	4%[15.4 µM]	-6%	2.2	x	-16
COc1ccccc1OCCCOc1c(Cl)cc(C)cc1Cl	9.0	9%	-7%	-0.2	-1.2%	3
CCCS(=O)(=O)N1CCC(Cc2ccc(OC)cc2)(C(=O)OCC)CC1	5.2	19%	-1%	5.4	-9.2%	-3
COc1ccccc1C1C(C(=O)Nc2ccccc2)=C(C)Nc2nc(-c3ccccc3)nn21 (configuration not stated)	x	x	x	-0.7	-3.8%	-5

More compounds follow.
SMILES	Menin-MLL FL inh	gsp ag	gsp antag	TRPML1 agonist	ClpP mod	TRPML1 blocker
COc1cc(-c2cc(OC)c(O)c(OC)c2)cc(OC)c1O	x	-20%	-14%	-0.9	x	5
COc1cc2cc(C[C@H](C)O)oc(=O)c2cc1OC	x	-7%	-8%	0.0	u	10
COc1ccc(/C=C/C(=O)c2ccc([N+](=O)[O-])o2)cc1OC	x	x	-7%	1.3	2.4%	34
CCC(c1nnc(SCC(=O)N2CC3(C)CC2CC(C)(C)C3)o1)N(C)C (configuration not stated)	-0.8	17%	-10%	-0.2	-1.5%	10
CCN(CC)CCNC(=O)c1ccc(NC(=O)c2c(C)nn(-c3ccc(F)cc3)c2Cl)cc1	-0.3	u	1%	0.1	x	3
COc1ccc(C2(NC(C)=O)CCN(Cc3cccnc3)CC2)cc1	4.0	11%[15.4 µM]	-1%	-0.1	-0.5%	5
Cc1[nH]c2ccccc2c1N=Nc1cccc(C(=O)O)c1	-0.3	-27%	-22%	0.6	0.7%	0
O=C(NCCc1cn2ccccc2n1)C1CCCCC1	0.5	4%	7%	-0.1	3.8%	-8
CC1CN(c2ccccn2)C(C)CN1C(=S)Nc1ccccc1 (configuration not stated)	x	-29%	-9%	0.3	-13%	22
Cc1ccc(-c2[nH]c3ccccc3c2SCCN)cc1	5.2	-3%	-9%	0.2	4.1%	-9
COc1ccccc1CNC(=O)C1CCN(c2nc3ccc(C)cc3[nH]2)CC1	x	x	x	1.8	-1.9%	-23
COc1cccc(-n2c(SCC(=O)Nc3cccc(C)c3)nc3c([nH]c4ccccc43)c2=O)c1	x	x	x	1.3	u	19
O=C(COc1ncnc2sccc12)N1CCN(S(=O)(=O)c2ccc(Cl)cc2)CC1	-0.5	-8%	2%	-0.6	-1.5%	12
Cc1c(/C(O)=C2\C(=O)C(=O)N(CCN(C)C)C2c2ccco2)cnn1-c1ccccc1 (configuration not stated)	3.7	12%	7%	-0.3	-1.0%	15
Cc1nnc(SCCC(=O)Nc2ccc(F)cc2)s1	3.1	0%	-1%	-0.1	-0.6%	12
Cn1cc(CN2CCN(Cc3ccccc3)CC2)c(-c2cccc(Cl)c2)n1	-1.5	1%	11%	0.6	0.4%	-19
CC(=O)Nc1ccc(NC(=O)CSc2nnnn2-c2ccc3c(c2)OCCO3)cc1	-2.5	u	8%	2.4	-1.1%	17
Cc1ccc(CN2CCSc3ccc(C(=O)NCCCN4CCN(C)CC4)cc32)cc1	x	u	29%	-0.4	3.9%	0
O=C(O)CC(C(=O)N(c1ccccc1)c1ccccc1)N1CCOCC1 (configuration not stated)	0.7	-1%	9%	-0.3	0.4%	4
O=C(Nc1cccc(Cl)c1)c1nc[nH]c1C(=O)N1CCN(c2ccccc2)CC1	x	16%	1%	0.1	-4.1%	13
Cc1nc(-c2ccc(S(=O)(=O)Nc3cccc(Cl)c3)cc2)co1	-0.5	19%	4%	0.1	-0.1%	24
O=C(Nc1c(C(=O)O)[nH]c2ccc(F)cc12)c1cccc(C(F)(F)F)c1	3.0	8%[15.4 µM]	-7%	-0.9	x	23
Cc1cccc(OCc2nnc(SCC(=O)N3CC(=O)Nc4ccccc43)o2)c1	-1.2	10%	-12%	1.6	0.7%	-4
Cc1cccc(C)c1-n1c(C)cc(/C=N/NC(=O)CSc2ncccn2)c1C	0.8	-31%	7%	1.4	-0.6%	4
O=C(NNC(=O)c1cccs1)c1ccccc1	0.4	u	3%	0.5	1.5%	-2
Cc1ccc(NC(=O)CN2C(=O)C(C)(C)c3ccccc32)cc1	x	x	x	1.9	-1.6%	-9
C=CCN(c1ccc(Cl)cc1)S(=O)(=O)c1cccc(C(=O)O)c1	-2.0	-2%	-3%	0.2	x	-9
CC(C)(C)n1nnnc1C(c1cccnc1)N1CCN(c2ccccc2F)CC1 (configuration not stated)	-1.4	1%	-2%	-1.0	-3.6%	12
CC(=O)c1ccc(NC(=O)c2cn(C)c(=O)c3ccccc23)cc1	x	-6%	x	0.7&-1.0	u	7&-2
Cc1cccc2nc(CSc3nc4ccc([N+](=O)[O-])cc4[nH]3)cn12	1.9	-6%[15.4 µM]	12%	-0.7	-0.1%	1
O=C(O)CC1(CC(=O)Nc2cc(F)ccc2Cl)CCCCC1	0.6	3%	-11%	4.3	1.7%	-2
O=C(Nc1ccccc1Cl)c1ccc(-c2ccccn2)s1	-0.1	2%[15.4 µM]	3%	0.0	-1.4%	-7
O=C(c1nc(-c2ccc(Cl)cc2)n2c1CCCCC2)N1CCN(c2ccc(F)cc2)CC1	x	x	x	1.1	-0.3%	-9
O=C(N/N=C/c1ccco1)c1ccccc1OCc1ccc(Br)cc1	2.3	-32%[inhibitor]	-13%	3.7	x	1
